RN4220 kill: S. aureus RN4220 growth inhibition; OD600, 16 h; inhibition, % (concentration not given with the values); 0.33% of 330,000 active; AID 1259311;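 active = z-score of -3 or lower and OD600 up to 0.18 on both plates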;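 note: plate controls were untreated cells for no effect and reference antibiotic for full effect; stock transfer was 100 nL into about 80 µL; one replicate is shown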
Bead autofluor: counter-screen for toxin protease inhibitors: compound fluorescence; compound autofluorescence counterscreen, microsphere flow cytometry; stronger effect = higher value; fluorescence intensity (test concentration not listed); 3.1% of 360,000 active;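 active = at least 3 SD above the mean of all compounds, about 16000 in these data; inconclusive = too few beads counted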;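 note: 100 nL of 1 mM stock went into each well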
BJeLR viability: BJeLR cell viability loss; BJeLR (HRASV12) viability, CellTiter-Glo ATP luminescence, 48 h; reference of the scale not given here; 0.17% of 300,000 active; inhibition, % (no concentration beside the values); AID 1554;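 active = replicate mean above 50%; inconclusive = above 50% but judged a plate artefact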;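 note: 50 nL library stock added to about 25 µL; numbers are from one replicate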
ugtP null kill: compounds lethal to S. aureus RN4220 ugtP deletion mutant; OD600 growth, 16 h; some inactives read as strong as hits; growth inhibition, % (concentration not given with the values); 0.54% of 330,000 active;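 active = z-score under -3 and OD600 up to 0.15 on both plates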;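 note: plate controls were untreated wells for no effect and antibiotic for full effect; wells of about 80 µL received 100 nL stock; the first replicate is given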
Mtb hypoxia inh: Mtb hypoxia fluorescent reporter inhibition. M. tuberculosis hypoxia-regulated fluorescent reporter, fluorescence. fluorescence inhibition, % (concentration not given with the values). 0.1% of 300,000 active. AID 1159583;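 active = 35 to 45% if threefold the growth effect, above 45% if 1.5-fold the growth effect; inactive = the rest, general growth blockers included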;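 note: wells of about 50 µL received 100 nL stock; 0% = vehicle wells and 100% = reference inhibitor wells; whole bacteria with a GFP reporter of the hypoxia response; strong numbers were not always called active; many hits fall short of the cut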
PrP 5UTR inh: suppresses PrP 5' UTR mRNA reporter expression. cell-based PrP 5' UTR mRNA reporter, plate reader. inhibition, % (no concentration beside the values). 0.35% of 340,000 active. AID 488862;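 active = every replicate at 50% or more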;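 note: 0 = median of the neutral control wells; tested in H4 reporter cells; numbers are from one replicate; inactives centre near -14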
Mtb hypoxia inh growth: also measured in Mtb hypoxia inh; calls as there; growth inhibition, %; measured here: M. tuberculosis growth (absorbance);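 0% = vehicle and 100% = reference antibiotic; read after six days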
Active calls of the source: *; ? = inconclusive; · = not tested or not shown.

1. CSCCC(NC(=O)c1cccc(C)c1)C(=O)OCC(=O)Nc1c(C)nn(-c2ccccc2)c1C (stereo not drawn)
2. Cc1ccc(S(=O)(=O)c2ncccc2[N+](=O)[O-])cc1
3. Cc1nnnn1/C(=C\c1ccccc1)C(=O)OCC(=O)Nc1cccc(S(=O)(=O)N(C)C)c1
4. CCC1=C(OC(=O)N(CC)CC)N2C(=O)OC(=NCCc3c[nH]c4ccccc34)[C@]2(C)[C@H]2C1=CC[C@H]1C(=O)N(C)C(=O)[C@H]12
5. Cc1ccc(S(=O)(=O)Nc2cccc(C(=O)NCC(c3ccco3)N3CCCC3)c2)cc1F (stereo not drawn)
6. CCC(C)NC(=O)CN1C(=O)CSc2ccc(S(=O)(=O)N3CCCC3)cc21 (stereo not drawn)
Screen / compound no.	1	2	3	4	5	6
RN4220 kill	4.0	·	0.2	·	6.5	5.9
Bead autofluor	3889	4284	3395	3924	5794	4221
BJeLR viability	5	5	·	-7	2	-4
ugtP null kill	-1	·	-1	·	19	10
Mtb hypoxia inh	5	·	-2	·	10	5
Mtb hypoxia inh growth	-3	·	-4	·	-3	-3
PrP 5UTR inh	-11	-4	-15	-9	-24	-5

7. Cc1ccc2c(cnn2C(=O)CCC(=O)N2CCCCC2C)c1 (stereo not drawn)
8. CCCc1nnc(NC(=O)CCC(=O)NC2CCCCC2)s1
9. Cc1ccc2cc(CCNS(=O)(=O)c3ccc(F)cc3)c(=O)[nH]c2c1
10. CCn1cc(CCC(=O)NCCc2ccccc2)c2ccccc21
11. CC(C)(C)N1C(=O)[C@H]2[C@@H](c3ccc(Br)cc3)N3C(=O)N(c4cccc(Cl)c4)C(=O)[C@@]3(C)[C@H]2C1=O
12. Cn1c(SCC(=O)Nc2ccc(N3CCOCC3)cc2)nnc1-c1ccccc1
Screen / compound no.	7	8	9	10	11	12
RN4220 kill	9.1	4.7	-1.3	3.8	·	2.4
Bead autofluor	5437	5736	5166	3759	3984	5920
BJeLR viability	-1	4	·	0	-16	-1
ugtP null kill	7	-2	-6	7	·	13
Mtb hypoxia inh	3	-2	0	4	·	5
Mtb hypoxia inh growth	2	-4	2	9	·	-3
PrP 5UTR inh	-29	-18	-7	-15	-27	-14

4 compounds out of the list, ordered by SMILES length, highest first.
3. Cc1nnnn1/C(=C\c1ccccc1)C(=O)OCC(=O)Nc1cccc(S(=O)(=O)N(C)C)c1
1. CSCCC(NC(=O)c1cccc(C)c1)C(=O)OCC(=O)Nc1c(C)nn(-c2ccccc2)c1C (stereo not drawn)
12. Cn1c(SCC(=O)Nc2ccc(N3CCOCC3)cc2)nnc1-c1ccccc1
7. Cc1ccc2c(cnn2C(=O)CCC(=O)N2CCCCC2C)c1 (stereo not drawn)
Screen / compound no.	3	1	12	7
RN4220 kill	0.2	4.0	2.4	9.1
Bead autofluor	3395	3889	5920	5437
BJeLR viability	·	5	-1	-1
ugtP null kill	-1	-1	13	7
Mtb hypoxia inh	-2	5	5	3
Mtb hypoxia inh growth	-4	-3	-3	2
PrP 5UTR inh	-15	-11	-14	-29

Other results.
13. O=C(NC1CCN(C(=S)Nc2ccccc2Cl)CC1)C1CCCCC1
14. CC(=O)Nc1ccc(C(=O)OCC(=O)c2cccc([N+](=O)[O-])c2)cc1
15. Cc1c(NS(=O)(=O)c2cccc(C(=O)O)c2)c(=O)n(-c2ccccc2)n1C
16. Cc1cccc(C)c1OC(=O)CSc1nnc(-c2ccccc2O)o1
17. O=C(CNCc1ccc(F)cc1)Nc1cc(S(=O)(=O)N2CCOCC2)ccc1Cl
18. CCC(C)NC(=O)C1(C)CCC(=O)N1CCc1ccc(OC)c(OC)c1 (stereo not drawn)
Screen / compound no.	13	14	15	16	17	18
RN4220 kill	-0.1	·	1.4	8.6	2.8	3.8
Bead autofluor	3643	2129	5589	8491	3959	10672
BJeLR viability	-5	-10	1	1	·	3
ugtP null kill	5	·	2	12	1	6
Mtb hypoxia inh	2	·	3	10	4	14
Mtb hypoxia inh growth	4	·	-1	6	0	2
PrP 5UTR inh	-33	-16	2	-5	-1	1

19. CCc1c(C)nc(N2CCN(Cc3ccccc3)CC2)[nH]c1=O
20. Cc1ccc(S(=O)(=O)NCCCCCC(=O)Nc2ccccn2)cc1
21. C=CCC1CCC/C(=N\NS(=O)(=O)c2ccc(C)cc2)C1 (stereo not drawn)
22. CCCOc1ccc(-c2nc(C#N)c(N3CCN(C)CC3)o2)cc1
23. COc1ccc(S(=O)(=O)NCCc2cn3cccc(C)c3n2)cc1OC
24. O=C(CCSCCc1ccccn1)Nc1ccc(Cc2ccncc2)cc1
Screen / compound no.	19	20	21	22	23	24
RN4220 kill	4.7	4.4	·	-5.3	-13	3.1
Bead autofluor	4258	8035	3929	3076	6446	2601
BJeLR viability	6	13	7	-7	-6	4
ugtP null kill	4	15	·	0	-1	7
Mtb hypoxia inh	·	12	·	·	-2	0
Mtb hypoxia inh growth	·	7	·	·	2	0
PrP 5UTR inh	-14	-8	0	-7	-21	-56

25. O=S(=O)(NC1CCCC1)c1ccc(S(=O)(=O)N2CCCN(Cc3ccccc3)C2)cc1
26. Cc1cc(C)n(CC(=O)NN=Cc2ccco2)n1
27. COc1ccccc1CNC(=O)C(=O)NCC1CCCN1S(=O)(=O)c1cccs1 (stereo not drawn)
28. Cc1ccc(S(=O)(=O)N(C)CC(=O)OCC(=O)NC(c2ccccc2)c2ccccc2)cc1
29. CCOC(=O)CNC(=O)c1ccc(Br)s1
30. COC(=O)CSc1nnc(CNC(=O)c2cccs2)n1-c1cccc(C)c1
Screen / compound no.	25	26	27	28	29	30
RN4220 kill	4.2	7.7	1.4	7.5	9.8	·
Bead autofluor	10114	·	10060	1849	3576	8555
BJeLR viability	-1	·	10	-3	-2	-15
ugtP null kill	-2	-3	3	8	4	·
Mtb hypoxia inh	4	10	4	5	9	·
Mtb hypoxia inh growth	7	9	5	-8	-1	·
PrP 5UTR inh	-31	·	-68	-16	-14	-10

31. CCC1CCCCN1CCCNC(=O)c1ccc2c(c1)c(C)c(C)n2CC (stereo not drawn)
32. Cc1nnc(C)n1N=Cc1ccccc1
33. O=C1CN(C(=O)CSc2nncn2-c2ccccc2)c2ccccc2N1
34. Cc1cc(C)c(C(=O)CC(=O)c2cccnc2)c(C)c1
35. CCOC(=O)C(C(C)=NNC(=O)C1CC1c1ccccc1)C(C)C (stereo not drawn)
36. O=C(CNC(=O)c1ccccc1Cl)NN=Cc1ccc2c(c1)OCO2
Screen / compound no.	31	32	33	34	35	36
RN4220 kill	-0.4	4.4	7.1	11	3.6	-1.1
Bead autofluor	8724	·	21221*	3060	·	·
BJeLR viability	1	·	7	·	·	·
ugtP null kill	0	4	-9	6	-1	1
Mtb hypoxia inh	10	13	6	9	9	5
Mtb hypoxia inh growth	11	7	14	10	5	-3
PrP 5UTR inh	-15	·	-21	7	·	·

37. COc1ccc(CNC(=O)C(c2ccco2)N(C(=O)c2csnn2)c2cccc(C)c2C)cc1 (stereo not drawn)
38. CC1CC(C)CN(C(=O)COC(=O)/C=C/c2cccc([N+](=O)[O-])c2)C1 (stereo not drawn)
39. CN1CCN(C2Cc3ccccc3Sc3ccc(Cl)cc32)CC1 (stereo not drawn)
40. CSc1nc(-c2ccco2)nn1C(=O)c1ccc(C)cc1
41. Cc1ccc(CC(=O)N2CC(C)OC(C)C2)cc1 (stereo not drawn)
42. CN1/C(=C\C(=O)COC(=O)c2ccccc2O)C(C)(C)c2ccccc21
Screen / compound no.	37	38	39	40	41	42
RN4220 kill	6.6	4.4	-7.0	5.7	0.5	14
Bead autofluor	2842	4558	6166	5588	4470	4490
BJeLR viability	4	·	·	3	0	-1
ugtP null kill	-4	10	0	14	9	1
Mtb hypoxia inh	3	7	18	·	·	8
Mtb hypoxia inh growth	-1	1	20	·	·	-4
PrP 5UTR inh	-25	4	-12	-9	-7	-29

Results in Bead autofluor and ugtP null kill, for three of the compounds above:
| entry | Molecule | Bead autofluor | ugtP null kill |
| --- | --- | --- | --- |
| 37 | COc1ccc(CNC(=O)C(c2ccco2)N(C(=O)c2csnn2)c2cccc(C)c2C)cc1 (stereo not drawn) | 2842 | -4 |
| 38 | CC1CC(C)CN(C(=O)COC(=O)/C=C/c2cccc([N+](=O)[O-])c2)C1 (stereo not drawn) | 4558 | 10 |
| 39 | CN1CCN(C2Cc3ccccc3Sc3ccc(Cl)cc32)CC1 (stereo not drawn) | 6166 | 0 |

(more compounds)
43. COc1cc(C)c(S(=O)(=O)Nc2ccccc2F)cc1C
44. COc1cc2ccccc2cc1C(=O)N(CCN(C)C)c1nc2ccc(Br)cc2s1
45. CCc1cccc(C)c1NC(=O)CN1CCN(S(=O)(=O)c2ccc(C(C)(C)C)cc2)CC1
46. O=C(Nc1ccc(OC(F)(F)F)cc1)C1CC(c2ccc(F)cc2)=NO1 (stereo not drawn)
47. O=C(OCn1nnc2ccccc2c1=O)c1cc2ccccc2o1
48. CCN(CC)C(=O)[C@H]1C[C@H](CC(=O)NCCc2ccccn2)C(=O)N2CCc3c([nH]c4ccc(Cl)cc34)[C@]12C
Screen / compound no.	43	44	45	46	47	48
RN4220 kill	3.9	-8.8	0.4	8.6	22	2.9
Bead autofluor	6149	4457	?	2090	5997	3616
BJeLR viability	-5	-1	3	8	0	·
ugtP null kill	-4	-17	-10	-5	20	-4
Mtb hypoxia inh	·	-13	-3	7	2	-9
Mtb hypoxia inh growth	·	-6	11	2	-1	-1
PrP 5UTR inh	-9	-3	9	-24	-9	-17

49. CCN(Cc1ccccc1)C(=O)Cn1c(=O)n(CC(=O)N2CCCCC2)c(=O)c2sccc21
50. N#Cc1c(N)c(C(=O)c2ccccc2)n2c1CCCC2
51. COc1cccc(CNC(=O)CCNC(=O)c2ccccc2OC)c1
52. CC(=O)C1C(c2ccc(C)cc2)c2c(n[nH]c2C)CC1(C)O (stereo not drawn)
53. CC1CC(C)CN(C(=O)c2nn(C)c3c2CS(=O)(=O)c2ccccc2-3)C1 (stereo not drawn)
54. C/C(=N\NC(=O)CNc1ccccc1Cl)C(C)(C)C
Screen / compound no.	49	50	51	52	53	54
RN4220 kill	2.4	6.4	1.9	4.0	6.4	·
Bead autofluor	5971	8138	4739	5231	4761	3323
BJeLR viability	-5	13	-16	-5	4	3
ugtP null kill	-1	0	6	2	12	·
Mtb hypoxia inh	7	3	-4	3	10	·
Mtb hypoxia inh growth	8	3	-5	5	0	·
PrP 5UTR inh	-4	8	7	-21	-3	-37

55. O=C(N=C1N=C2C=CC(Br)=CN2Cc2ccccc21)c1ccc([N+](=O)[O-])cc1[N+](=O)[O-]
56. COCCNC(=O)COCc1cc(-c2ccc3c(c2)OCO3)on1
57. O=C1C2C3CCC(C3)C2C(=O)N1c1ccc(OS(=O)(=O)c2ccccc2)cc1 (stereo not drawn)
58. CSc1nncn1N=Cc1ccc2c(c1)OCO2
59. Cc1cc(C)nc(Nc2n[nH]c(-c3ccccc3C)n2)n1
60. COc1cccc(CNC(=O)CCC2CCCN(C(=O)c3cc(C)[nH]n3)C2)c1 (stereo not drawn)
Screen / compound no.	55	56	57	58	59	60
RN4220 kill	·	2.2	5.9	4.0	4.2	4.4
Bead autofluor	4752	3608	3154	·	4015	4350
BJeLR viability	-14	4	21	·	0	-9
ugtP null kill	·	-1	-3	0	4	8
Mtb hypoxia inh	·	6	0	3	0	7
Mtb hypoxia inh growth	·	11	5	7	11	9
PrP 5UTR inh	-96	-20	-94	·	-74	-13

61. O=C(CSc1cccc[n+]1[O-])NCCCc1ccccc1
62. CC(=NNc1nc2ccccc2[nH]1)c1ccc(Cl)s1
63. O=C(Oc1ccc(C(=S)N2CCOCC2)cc1)c1cc([N+](=O)[O-])cc([N+](=O)[O-])c1
64. CCOC(=O)C1(Cc2ccc(Cl)cc2)CCN(C(=O)C2=NNC(=O)CC2)CC1
65. COc1cccc(NC(=O)Nc2nnc(Cc3ccc(OC)c(OC)c3)s2)c1
66. O=c1[nH]cc(I)cc1I
67. N/C(Cc1ccc([N+](=O)[O-])cc1)=N\OC(=O)c1ccco1
68. O=C(CN1C(=O)NC2(CCCC2)C1=O)N1CCN(S(=O)(=O)c2cccc(C(F)(F)F)c2)CC1
Screen / compound no.	61	62	63	64	65	66	67	68
RN4220 kill	2.8	-3.8	-0.1	4.3	5.4	2.7	·	6.2
Bead autofluor	4021	·	3744	4108	3765	4602	3800	·
BJeLR viability	3	·	7	-14	-4	23	0	-1
ugtP null kill	2	-19	6	4	10	3	·	15
Mtb hypoxia inh	-8	7	-5	12	4	6	·	2
Mtb hypoxia inh growth	11	-6	3	2	-4	3	·	-2
PrP 5UTR inh	-19	·	-12	-16	-30	-21	-9	-1

Source: PubChem
